Assay outcomes as filed in PubChem.
KCNQ2 pot – KCNQ2 (rat) channel potentiation; B-score at 10 µM; 0.54% of 310,000 active; CHO-K1 KCNQ2, FluxOR thallium flux fluorescence; stronger effect = higher value; AID 2239; O88943;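 active = fluorescence ratio B-score at least 3 SD of library B-scores, with initial fluorescence B-score within 3 SD, cut at about 5.3 in these data; same plate scores as AID 2156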;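 note: B-score of peak minus minimum over baseline fluorescence ratio after K+ and Tl+ stimulus; positive B-score means potentiation of KCNQ2 with more thallium influx and brighter signal; only the inactives scoring about 0 or higher are listed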
Target sequence (O88943 whole entry, looked up): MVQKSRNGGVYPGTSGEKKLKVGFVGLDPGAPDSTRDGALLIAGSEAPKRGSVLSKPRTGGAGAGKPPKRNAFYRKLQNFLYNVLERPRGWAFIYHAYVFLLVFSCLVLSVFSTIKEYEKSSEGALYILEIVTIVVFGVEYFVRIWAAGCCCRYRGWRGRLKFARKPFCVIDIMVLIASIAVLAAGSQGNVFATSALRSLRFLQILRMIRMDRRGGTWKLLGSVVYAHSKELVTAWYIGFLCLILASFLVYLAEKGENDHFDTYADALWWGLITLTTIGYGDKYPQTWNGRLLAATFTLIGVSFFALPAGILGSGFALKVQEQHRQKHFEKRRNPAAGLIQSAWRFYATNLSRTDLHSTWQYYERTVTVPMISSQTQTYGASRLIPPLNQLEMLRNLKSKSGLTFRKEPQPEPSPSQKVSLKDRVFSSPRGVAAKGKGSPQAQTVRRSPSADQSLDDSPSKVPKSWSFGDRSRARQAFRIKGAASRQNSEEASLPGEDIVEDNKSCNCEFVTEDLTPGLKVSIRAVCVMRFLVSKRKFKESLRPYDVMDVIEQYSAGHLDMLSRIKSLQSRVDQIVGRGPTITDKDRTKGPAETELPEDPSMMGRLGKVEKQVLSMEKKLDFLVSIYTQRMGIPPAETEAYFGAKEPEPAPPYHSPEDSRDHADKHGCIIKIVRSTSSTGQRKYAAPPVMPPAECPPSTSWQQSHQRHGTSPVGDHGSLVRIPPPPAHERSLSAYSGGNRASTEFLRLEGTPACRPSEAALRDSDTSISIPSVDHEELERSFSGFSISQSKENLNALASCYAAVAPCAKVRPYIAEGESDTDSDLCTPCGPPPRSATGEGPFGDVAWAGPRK
KCNQ2 pot baseline – second read-out of KCNQ2 pot, no call of its own (marks repeat the call); B-score; compound at 10 µM; measured here: initial fluorescence intensity artifact check;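 brightness before thallium and not channel activity; 0 = typical well and far values either way flag optical interference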
* marks the source's active call; other numbers are inactive results; nt = no result given. The list is partial, so the mix of outcomes need not match the whole.

compound	KCNQ2 pot	KCNQ2 pot baseline
CC(C)c1ccc2c(c1)C1Cc3ccccc3C1N2 (centres undefined)	0.69	-0.1
CC(C)OC(=O)CSc1nc2c(cc1C#N)CCCCC2	0.03	-0.39
Cc1ccc(Cn2nc(C)c(/C=N/NC(=O)c3cccnc3)c2C)cc1	0.21	1.09
CC1CCN(C(=O)COC(=O)CCCN2C(=O)c3cccc4cccc(c34)C2=O)CC1	0.52	-0.97
COc1cc(C2C3=C(CCCC3=O)Nc3[nH]n(-c4ccccc4)c(=O)c32)ccc1OC(C)=O (centres undefined)	0.08	0.64
O=C(CN1CCN(Cc2ccc(F)cc2)C1=O)NCc1cccs1	0.15	-0.01
NNC(=O)c1cc2c(ccc3ccccc32)o1	0.06	-0.9
O=C(COC(=O)c1cc2ccccc2cc1O)NC(=O)NCc1ccco1	0.78	-0.31
Nc1ccc2nc(COc3ccccc3)[nH]c2c1	0.08	-0.12
Cc1sc2ncn(CC(=O)Nc3ccccc3F)c(=O)c2c1-c1ccccc1	0.09	0.66
CCOc1ccc(-c2cc(C(=O)N/N=C(\C)c3cccnc3)c3ccccc3n2)c(OCC)c1	0.3	-0.03
CCOc1cc2[nH]c(=S)n(CCCOC)c(=O)c2cc1OCC	0.95	-1.62
Nc1cc(=O)[nH]c(SCC(=O)Nc2cccc([N+](=O)[O-])c2)n1	1.42	1.02
COc1ccc(C(=O)Nn2cnc3scc(-c4cccs4)c3c2=O)c(O)c1	1.44	-0.13
O=C(Nc1ccccc1)c1ccc(CN2CCC(Cc3ccccc3)CC2)cc1	0.92	0
COc1ccc(C(=O)N2CCN(C(=O)c3cc(OC)c(OC)c(OC)c3)CC2)cc1	1.5	-1.25
Cn1c(=O)c(=O)n(C)c2cc(S(=O)(=O)NCCOc3ccccc3)ccc21	1.29	-0.99
CCc1cc(=O)oc2c(C)c(OCC(=O)NCC3CCC(C(=O)O)CC3)ccc12 (centres undefined)	0.18	0.88
CC1CCc2c(sc(/N=C/c3cccnc3)c2C(N)=O)C1 (centres undefined)	0.6	-0.87
O=C(CN(C(=O)c1cccc([N+](=O)[O-])c1)C1CCCCC1)Nc1ccc(Cl)c([N+](=O)[O-])c1	0.56	-0.21
CN(C)S(=O)(=O)c1cccn1-c1ncc(C(F)(F)F)cc1Cl	0.64	1.26
O=C(CCC(=O)N(CC(=O)NC1CCCC1)c1cccc(F)c1)Nc1nccs1	0.85	-1.34
Cc1noc(C)c1COC(=O)c1ccc(F)c(S(=O)(=O)N2CCCCC2)c1	0.91	1.54
COc1ccc(NC(=O)C(c2cc3c(cc2[N+](=O)[O-])OCO3)N2CCN(C=O)CC2)cc1 (centres undefined)	0.15	0.13
COc1cc(/C=N\NC(=O)c2ccc(Cn3nc([N+](=O)[O-])c(Cl)c3C)o2)ccc1O	2.8	0.97

Next section; the last 3 above are carried over.
compound	KCNQ2 pot	KCNQ2 pot baseline
Cc1noc(C)c1COC(=O)c1ccc(F)c(S(=O)(=O)N2CCCCC2)c1	0.91	1.54
COc1ccc(NC(=O)C(c2cc3c(cc2[N+](=O)[O-])OCO3)N2CCN(C=O)CC2)cc1 (centres undefined)	0.15	0.13
COc1cc(/C=N\NC(=O)c2ccc(Cn3nc([N+](=O)[O-])c(Cl)c3C)o2)ccc1O	2.8	0.97
C=CCn1c(SCC(=O)OC)nc2sc3c(c2c1=O)CCN(C)C3	0.03	0.94
C[C@]12CC[C@@H]3c4ccc(O)cc4CC[C@H]3[C@@H]1CC[C@@H]2OC(=O)CCC(=O)O	0.61	-0.41
CC(C)(C)NC(=O)CCc1nnc(Cc2c[nH]c3ccccc23)o1	0.74	0.48
O=C(OCCN1CCN(C2=NS(=O)(=O)c3ccccc32)CC1)c1ccccc1F	0.46	0.4
CC(C)OC(=O)CSc1nnc(-c2cccnc2)n1N	0.21	1.91
COc1cc(-c2nn3c(-c4ccccc4)nnc3s2)cc(OC)c1OC	0.43	-0.75
CC(C)OC(=O)C1C2C=CC3(CN(C(C)c4ccc(Br)cc4)C(=O)C13)O2 (centres undefined)	0.16	1.84
c1ccc(-c2nn3c(Cn4cnc5ccccc54)nnc3s2)cc1	0.18	0.93
Nc1ncnc(Oc2cccc(C(F)(F)F)c2)c1[N+](=O)[O-]	1.83	-0.33
CC(C)c1cccc(O)c(=O)c1	0.03	0.04
CN(Cc1ccccc1)c1ncc(C=O)s1	0.19	-0.78
O=C(NCCCO)c1cc2c([nH]c3ccccc32)c(-c2ccccc2)n1	1.18	0.12
Cc1cc(NC(=O)CCC(=O)N(Cc2cccs2)C(C(=O)NC2CCCC2)c2cccnc2)no1 (centres undefined)	0.04	-0.4
Cn1c(N)c(S(=O)(=O)NCc2ccccc2Cl)c(=O)n(C)c1=O	0.9	0.4
O=C(Cn1c(=O)[nH]c2ccccc2c1=O)Nc1ccc2c(c1)OCCO2	1.57	-0.19
CCN1CCN(CCCNC(=O)c2cc3cc4ccc(OC)cc4nc3o2)CC1	0.02	-2.45
Cc1c(C)n(-c2ccccc2)c2ncnc(NCCN(C)C)c12	0.85	1.06
Cc1onc(C(=O)N2CCN(C(c3ccccc3)c3ccccc3)CC2)c1[N+](=O)[O-]	0.01	0.14
O=C(CCc1nc2ccccc2c(=O)[nH]1)NNC(=O)c1ccc(Cl)cc1	0.53	0.01
CCOC(=O)C1=NNC2C(=O)N(Cc3ccccc3)C(=O)C12 (centres undefined)	0.13	0.13
CCCC/C(O)=C1\C(=O)CCCC1=NCCc1c(C)[nH]c2ccc(OC)cc12	0.5	-0.6
CCOC(=O)C1CCCN(c2c(NCCC(C)C)c(=O)c2=O)C1 (centres undefined)	0.26	-0.96
CCOC(=O)CNC(=O)COc1coc(CN2CCN(Cc3ccccc3)CC2)cc1=O	0.34	1.94
COCCCNC(=O)c1c(NC(=O)C2COc3ccccc3O2)sc2c1CCCC2 (centres undefined)	0.04	-1.8
COc1ccc(-c2nc(N)ncc2-c2ccccc2OC)c(O)c1	3.13	1.21
CC(Sc1n[nH]c(=O)[nH]c1=O)C(=O)OCc1ccccc1 (centres undefined)	0.94	-0.74
CC(C)(C)NC(=O)CN(CCN1CCOCC1)C(=O)CNS(=O)(=O)c1ccc(Cl)cc1	1.15	-0.46
CCC(Cc1ccccc1)NC(=O)Cn1cccc1C(=O)c1ccccc1 (centres undefined)	0.05	1.28
COc1ccc(NC(=O)C2CCC(CNS(=O)(=O)c3cccs3)CC2)cc1OC (centres undefined)	0.7	0.52
CCCn1c(O)c(N=NC(=O)c2ccco2)c2ccccc21	11.4*	0.21*
O[C@@H]1CN(Cc2ccccc2Cl)CC[C@H]1N1CCOCC1	1.89	-0.02
CN(CC(=O)Nc1ccc(S(=O)(=O)N(C)C)cc1)Cc1ccc(C(F)(F)F)cc1	0.01	0.03
Cc1nnc(SC(C)C(=O)Nc2c(C)n(C)n(-c3ccccc3)c2=O)n1N (centres undefined)	0.1	1.03
O=C(CSCc1ccccc1)N1CCN(C(=O)c2ccco2)CC1	0.9	-1.24
O=C(CSc1ncnc2c1nnn2Cc1ccc(F)cc1)NCC1CCCO1 (centres undefined)	0.27	-0.79
O=[n+]1c2c(n([O-])c3c1CCCC3)CCCC2	0.78	0.5
COC(=O)c1ccc(Oc2nc(N(C)C)nc(N3CCOCC3)n2)cc1	0.05	0.93
COc1ccc(N2CC(C(=O)N[C@@H](C)C(=O)NCCc3ccccc3)CC2=O)cc1 (some centres undefined)	1.31	0.22
CCOC(=O)C(=O)/C(=C\N(C)C)c1onc(-c2ccccc2Cl)c1C(=O)OC	1.3	-0.41
CC(NC(=O)c1cc(Br)cs1)C1CCCO1 (centres undefined)	0.26	0.03
Cc1ccc(C(C)NC(=O)c2ccc3c(c2)OCO3)cc1C (centres undefined)	10.2*	0.09*
O=C(Nc1ccc2nc(-c3cccs3)[nH]c2c1)c1ccco1	1.9	-0.23
CCN(c1ccccc1)S(=O)(=O)c1ccc(Cl)c(NC(=O)CN2C(=O)NC3(CCCC3)C2=O)c1	0.52	1.63
CC(=O)c1cccc(NC(=O)N2CCCC(C(=O)c3cc(F)ccc3F)C2)c1 (centres undefined)	0.63	-2.95
Cc1ccc(C(=O)NC(=S)Nc2ccc(Oc3ccc(Cl)cc3)cc2)cc1	0.45	-0.64
CCCn1c2ccccc2c2cnn(CC(=O)N3CCOCC3)c(=O)c21	3.12	1.33
CC(C)(C)c1cc(C(=O)O)c(CN2CCCCC2)o1	1.55	-0.17
CC(C)c1ccc(C(=O)Nc2cccnc2)cc1	1.11	0.69
COc1cccc(-c2nc(CS(=O)(=O)CC(=O)N3CCN(C4CCCCC4)CC3)c(C)o2)c1	0.66	-0.37
O=C(Nc1ccc2c(c1)CCC2)C1CCN(c2c3c(nc4ncnn24)CCC3)CC1	1.97	-0.72

2 of the compounds above, with the structure last.
KCNQ2 pot | KCNQ2 pot baseline | SMILES
0.63 | -2.95 | CC(=O)c1cccc(NC(=O)N2CCCC(C(=O)c3cc(F)ccc3F)C2)c1 (centres undefined)
0.45 | -0.64 | Cc1ccc(C(=O)NC(=S)Nc2ccc(Oc3ccc(Cl)cc3)cc2)cc1

New compounds follow:
SMILES | KCNQ2 pot | KCNQ2 pot baseline
CCCNc1c(NS(=O)(=O)c2c(F)c(F)c(F)c(F)c2F)c(=O)oc2ccccc12 | 0.02 | -1.01
CCc1cc2c(=O)n(CCCOC)c(SCC(=O)Nc3oc(C)c4c(C)n[nH]c(=O)c34)nc2s1 | 0.89 | 0
O=C(CCn1cnnn1)Nc1ccc(Cl)c(Cl)c1 | 0.19 | 0.23
CCn1c(SCC(=O)NNC(=O)c2ccc(OC)cc2)nnc1-c1ccco1 | 2.26 | -2.19
O=c1c(Oc2ccccc2Br)c(C(F)(F)F)oc2c(CN3CCCC3)c(O)ccc12 | 2.68 | 0.1
COc1ccc(Cn2ccnc2CO)cc1[N+](=O)[O-] | 0.07 | 0.24
COc1ccc(OC)c(C2=NS(=O)(=O)N(C)C(C(=O)Nc3cccc(C(C)=O)c3)=C2)c1 | 1.31 | 0.13
O=C(Nc1cccs1)Nc1c(F)c(F)cc(F)c1F | 2.43 | -1.38
CN(CCc1cn[nH]c1)Cc1nc(Cc2ccccc2F)no1 | 0.43 | -1.41
O=C(O)C1CSC2(CCN(Cc3ccccc3)CC2)N1 (centres undefined) | 0.67 | -1.52
N#Cc1ccccc1NC(=O)CC1c2ccccc2Oc2ccccc21 | 1.92 | -0.68
COCCN1Cc2cccc(C(=O)N3CCN(c4cc(C)ccc4C)CC3)c2C1=O | 0.46 | -0.52
CS(=O)(=O)N1CCCC(C(=O)NCCc2ccccc2)C1 (centres undefined) | 0.4 | -0.31
Cc1ccc(S(=O)(=O)NCC(=O)OCC(=O)N(C)C2CCS(=O)(=O)C2)cc1 (centres undefined) | 0.16 | -0.26
COc1cc(CNC(=O)OCC(C)C)cc(OC)c1OC | 0.02 | -2.29
Cc1ccccc1C(=O)NC1CC2CCC(C1)N2Cc1ccccc1 (centres undefined) | 0.04 | -0.01
CCOC(=O)Cc1csc(NC(=O)Nc2cccs2)n1 | 0.06 | -0.1
CC(=O)c1c(C)[nH]c(C(=O)OCc2cccc(C)c2)c1C | 1.15 | 1.26
Cc1cc(C)n(-c2nc3ccccc3c(=O)n2OCCOc2ccccc2)n1 | -5.6 | nt
CCNC(=O)COC(=O)c1ccc(S(=O)(=O)N2CCCCCC2)cc1 | 1.19 | -2.91
O=C(Nc1ncnc2sc3c(c12)CCCCC3)c1ccc(F)cc1 | 3.46 | -0.02
O=C(Cc1ccc(Cl)cc1)Nc1ccccc1Sc1ccccc1 | 7.78* | -1.37*
Cn1c(SCC(=O)NCc2ccc3c(c2)OCO3)nc2c(c1=O)SCC2 | 0.79 | -2.58
COCc1c(C(N)=O)nnn1-c1nonc1N | 1.65 | -2.57
CCOC(=O)c1csc(-c2snnc2C)n1 | 1.66 | 0.25
Cc1ccc(CCNC(=O)C2CCN(S(=O)(=O)N3CCOCC3)CC2)cc1 | 0.85 | 0.08
O=C1CN(c2nc(-c3ccccc3)c3cc(Cl)ccc3n2)c2ccccc2N1 | 0.42 | 1.67
Cc1cc(=O)n(C)c(=O)n1CCCCCCOc1cccc([N+](=O)[O-])c1 | 3.4 | -0.2
OC1=C(O)c2nc3ccccc3nc21 | 0.01 | -1.52
CC1=C(C(=O)Nc2ccc(Cl)cc2)C2(CCCCC2)C(C(N)=O)C(=S)N1 (centres undefined) | 0.85 | 0

Four structures already listed, ordered by SMILES length, descending.
SMILES | KCNQ2 pot | KCNQ2 pot baseline
CN(CC(=O)Nc1ccc(S(=O)(=O)N(C)C)cc1)Cc1ccc(C(F)(F)F)cc1 | 0.01 | 0.03
CCCC/C(O)=C1\C(=O)CCCC1=NCCc1c(C)[nH]c2ccc(OC)cc12 | 0.5 | -0.6
Cc1sc2ncn(CC(=O)Nc3ccccc3F)c(=O)c2c1-c1ccccc1 | 0.09 | 0.66
COC(=O)c1ccc(Oc2nc(N(C)C)nc(N3CCOCC3)n2)cc1 | 0.05 | 0.93

Following part.
SMILES | KCNQ2 pot | KCNQ2 pot baseline
C=CCn1c(SCc2cc(=O)n3ccsc3n2)nnc1C1CCCCC1 | 0.01 | 3.85
Cc1ccc(C(=O)Nc2ccc(C(=O)N/N=C/c3ccc(C)o3)cc2)cc1 | 0.72 | -1.51
O=C(NNS(=O)(=O)c1ccccc1[N+](=O)[O-])c1cccc(Cl)c1 | 0.16 | -0.16
Cc1cc(-n2c(SCCC#N)nnc2-c2cccnc2)ccc1Cl | 0.1 | -0.65
Cc1ccc(S(=O)(=O)C(C#N)c2nc3ccccc3nc2N2CCC(C)CC2)cc1 (centres undefined) | 0.45 | 0.62
Cc1cc(C)c(NC(=O)CSc2ccc(-c3ccccn3)nn2)c(C)c1 | 0.31 | 0.19
CCc1nc(C)cc(N)c1OCc1ccccc1 | 0.71 | -0.02
O=C(Nc1nc(-c2cccnc2)cs1)c1ccc(S(=O)(=O)N2CCOCC2)cc1 | 0.23 | 0.72
